Bm FixLJ act – increases Burkholderia fixLJ two-component signaling; B. multivorans fixK-promoter GFP reporter, 18 h; stronger effect = higher value; z-score (concentration not given with the values); actives 0.3% (n = 29,000);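 active = replicate mean overnight rise in green fluorescent reporter signal, 3 or more SD over negative controls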;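 note: score is relative to vehicle wells of the plate; 300 nL library stock went into each well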
The depositor's hits bear a star; & = joins results of further samples.

SMILES	Bm FixLJ act
CC(C)n1nccc1S(=O)(=O)NCCCc1nc2ccc(Cl)cc2[nH]1	-1.21
COc1ccccc1-c1cc2nc(C)c(CCC(=O)NCc3cccc(Cl)c3)c(C)n2n1	0.59
Cc1ccc(NCc2cccn2-c2nnc(N3CCC(C(=O)NCc4ccc(OC(C)C)cc4)CC3)s2)cc1	-1.55
COc1cccc(OC)c1C(=O)N[C@@H]1C(=O)N2[C@@H]1SC(C)(C)[C@@H]2C(=O)O	-1.16
CN1CCN(C(=O)CCCc2ccccc2)C2CS(=O)(=O)CC21 (stereo not drawn)	0.61
COc1ccc(C(=O)Oc2c(Sc3ccccc3)c(C)nn2-c2ccccc2)c(OC)c1	1.73
Cc1ccc(NC(=O)/C(C#N)=C/c2cc(C)n(-c3ccc(F)cc3)c2C)cc1C	0.45
CCOc1ccc(NC(=O)CSc2nc(C)c(C(=O)Nc3ccccc3)c(-c3ccc(Cl)cc3)c2C#N)cc1	-1.02
CSCC(NC(=O)c1cc(-c2ccc(C)cc2)n[nH]1)C(=O)O (stereo not drawn)	-1.22
COc1ccccc1CNC(=O)CCCCn1c(=O)c2ccccc2n(Cc2ccccc2C)c1=O	-3.02
COc1ccc(N2CCN(C(=O)c3ccc(CS(=O)(=O)c4ccc(Br)cc4)o3)CC2)cc1	1.53
COc1cc([C@@H]2c3cc4c(cc3C(O[C@@H]3O[C@@H]5CO[C@@H](c6cccs6)OC5[C@H](O)[C@H]3O)C3COC(=O)[C@@H]32)OCO4)cc(OC)c1O (stereo partly drawn)	-0.51
Cc1ccc(/C=C(\C#N)C(=O)Nc2cccc(Br)c2)o1	0.29
CCOc1ccc(CCNC(=O)CSCc2nc(-c3cccc(C)c3)oc2C)cc1OCC	-1.63
COC(=O)c1cccc(CN2C(=O)SC(Nc3ccccc3C)C2=O)c1 (stereo not drawn)	1.14
Cc1ccc(CCNC(=O)c2ccc3nc(N4CCC(C)CC4)sc3c2)cc1	-0.98
Cc1ccc(Cl)cc1N1CCN(C(=O)c2ccc(CS(=O)(=O)c3ccc(Br)cc3)o2)CC1	2.14
O=C(c1csc(-c2ncccn2)n1)N1CCC[C@@]2(CCCC2O)C1 (stereo partly drawn)	-1.59
Cc1ccnc2nc(NC(=O)c3ccccc3Cl)nn12	-1.45
O=c1c2ccccc2nc(-c2ccc(Cl)cc2)n1CCCCOc1ccc(F)cc1	-2.16
NS(=O)(=O)c1cc2c(cc1Cl)NC(C(Cl)Cl)NS2(=O)=O (stereo not drawn)	-1.41&-0.13
Cc1cc(C)n2nc(-c3ccc(Cl)cc3)nc2n1	-1.67
Cc1ccc(NC(=O)CN2C(=O)c3cccnc3Sc3ccccc32)c(Br)c1	-1.38
O=C(NCc1ccc(F)cc1)c1c(O)nc2ccccn2c1=O	-0.65
COc1cccc(CNC(=O)CN(c2ccc(C)cc2)S(=O)(=O)N(C)C)c1OC	0.12
SMILES	Bm FixLJ act
Cc1ccc2nc(-c3ccsc3)c(Nc3ccc(C(C)C)cc3)n2c1	1.79
Cc1nc(CN2CCC(NC(=O)c3ccccc3C#N)C(O)C2)cs1 (stereo not drawn)	-2.56
Cc1ccc(NC(=O)CSc2nc(-c3ccco3)cc(C(F)(F)F)n2)cc1	0.14
CCc1ccccc1NC(=O)Cn1c(=O)n(-c2ccc(C)cc2)c(=O)c2cc(OC)c(OC)cc21	-0.11
Cc1ccc(C)c(N2CCN(S(=O)(=O)c3c(C)nc4sccn4c3=O)CC2)c1	-1.22
COc1cc(NS(=O)(=O)c2ccc(NC(=O)c3ccccc3C(=O)O)cc2)nc(OC)n1	-2.21
Cc1cc(C2CCCN2Cc2ccccc2OCCn2ccnc2)no1 (stereo not drawn)	0.18
COc1ccc(C2=Nc3ccc(F)cc3NC(c3cccc(C(F)(F)F)c3)=N2)cc1	-0.86
COCCNC(=O)CCn1c(=O)c2cc(OC)c(OC)cc2n(CC(=O)Nc2ccc(Cl)cc2F)c1=O	0.16
Cc1ccc(N(CC(=O)N2CCN(c3ccccc3)CC2)S(=O)(=O)c2c(C)noc2C)cc1	-0.48
Cc1ccc(-c2nnn3c2nc(NCc2ccc4c(c2)OCO4)c2ccccc23)cc1	-0.87
O=C(CSc1ccncc1)NC1CCN(C(=O)N2CCCC2)CC1	-1.11
CCOC(=O)c1ccccc1NC(=O)CCc1c(C)nc2ncnn2c1C	0.06
CCOc1ccccc1NC(=O)CSC1=Nc2ccccc2C2=NC(CC(=O)NCc3ccc4c(c3)OCO4)C(=O)N12 (stereo not drawn)	0.36
COc1ccc2nc3sc(C(=O)N4CCN(c5ccc(F)cc5)CC4)cc3cc2c1	-0.54
Cc1ccc(Sc2ccc(N3CCC(C(=O)Nc4cc(C)cc(C)c4)CC3)nn2)cc1	-0.37
O=S(=O)(c1ccccc1C(F)(F)F)N1CCC[C@]2(CCCC2O)C1 (stereo partly drawn)	-0.6
Cc1nccc(N2CCCC(c3nnc(CN4CCC(O)CC4)n3C)C2)n1 (stereo not drawn)	-0.76
COc1ccc(C(=O)c2oc3ccccc3c2NC(=O)COc2cccc(C)c2C)cc1	-1.37
COc1cccc(NC(=O)CC2Nc3cc(C)c(C)cc3NC2=O)c1 (stereo not drawn)	-1.35
COc1cc(C2CC(=O)c3c([nH]c(C(=O)OCc4ccc(C)cc4)c3C)C2)cc(OC)c1OC (stereo not drawn)	-0.43
CCS(=O)(=O)c1nc(S(=O)(=O)c2ccc(C)cc2)c(NC(C)c2ccccc2)s1 (stereo not drawn)	-0.67
CCn1c2ccccc2c2nnc(SCC(=O)O)nc21	-1.79
CC(C)(C)c1ccc(C2Sc3ccccc3NC3=C2C(=O)c2ccccc23)cc1 (stereo not drawn)	3.48*
O=C1CCC2(CCN(Cc3ccccc3OCCO)CC2)CN1C1CC1	-0.09

Entries listed so far with two or more sulfur atoms (3):
SMILES	Bm FixLJ act
NS(=O)(=O)c1cc2c(cc1Cl)NC(C(Cl)Cl)NS2(=O)=O (stereo not drawn)	-1.41&-0.13
Cc1ccc(C)c(N2CCN(S(=O)(=O)c3c(C)nc4sccn4c3=O)CC2)c1	-1.22
CCS(=O)(=O)c1nc(S(=O)(=O)c2ccc(C)cc2)c(NC(C)c2ccccc2)s1 (stereo not drawn)	-0.67

Remaining list, next part:
SMILES	Bm FixLJ act
Cc1ccc(S(=O)(=O)c2cn(Cc3ccccc3Cl)c3ccc(F)cc3c2=O)cc1	0.07
CC(C)CN(C[C@@H](O)[C@H](Cc1ccccc1)NC(=O)O[C@H]1CCOC1)S(=O)(=O)c1ccc(N)cc1	-1.63
CCCN(CCC)C(=O)Cn1c(=O)n(-c2ccc(C)cc2)c(=O)c2ccc(C(=O)NCc3ccccc3Cl)cc21	-1.76
CC(=O)N1CC2CCC(C1)N(S(=O)(=O)c1ccc3ccccc3c1)C2 (stereo not drawn)	-1.03
CCOc1ccc(NC(=O)CCNS(=O)(=O)c2cccs2)cc1	-0.72
Cn1nc(C2CCN(C(=O)C3COCCN3)CC2)n(-c2ccccc2)c1=O (stereo not drawn)	-1.68
CCn1cc(CN(C)C(=O)c2ccc3cccc(F)c3n2)cn1	1.35
COc1ccc(CNC(=O)C2CCN(C(=O)CCn3ccnc3C)CC2)cc1	-1.38
COC(=O)c1ccc(CSc2nc3ccncc3n2Cc2ccc(F)cc2)cc1	-0.07
COc1ccc(CCCc2nnc(SCC(=O)Nc3ccc(OC)cc3)o2)cc1	-0.32
Cc1ccc(Cl)cc1NC(=O)N1CCc2cc(S(=O)(=O)N3CCC(C)CC3)ccc21	-0.84
CCOC(=O)c1ccc(NC(=O)CSc2nc(-c3ccc(F)cc3)cc(C(F)(F)F)c2C#N)cc1	-27.2
Cc1cc(Br)ccc1NC(=O)c1cc2c(s1)-c1ccccc1SC2	-1.3
CCc1ccc(NC(=O)C(CC)n2nnc(C(=O)OC)c2C(=O)OC)cc1 (stereo not drawn)	-0.8
CN(Cc1ccc2nsnc2c1)Cc1cn(-c2ccccc2)nn1	-0.31
Cc1ccc(C(=O)Nc2cccc(OCc3cc(=O)n4c5c(sc4n3)CCCC5)c2)cc1	0.17
CCCCCN(CCCCC)C(=O)C(CCC(=O)O)NC(=O)c1ccc(Cl)c(Cl)c1 (stereo not drawn)	-0.36
CCc1cccc(NC(=O)CCNS(=O)(=O)c2cccc3nonc23)c1	0.84
COc1ccc(-n2nc(C(=O)NCC3CCCO3)cc2-c2ccccc2)cc1 (stereo not drawn)	0.51
COc1ccccc1CNC(=O)c1cc2c(-c3ccc(Cl)cc3)nn(C)c2s1	2.53
COC(=O)c1cc2oc3ccccc3c2n1Cc1ccccc1Cl	-0.53
Cc1cc(Cl)ccc1S(=O)(=O)N1CCC[C@]2(CCCC2O)C1 (stereo partly drawn)	-1.38
CCc1ccc(Cc2cnc(NC(=O)c3ccc4c(c3)CC(c3ccccc3)OC4=O)s2)cc1 (stereo not drawn)	-4.05
CN1CC(Nc2nc(CCc3ccccc3)nc3c2cnn3C)CCC1=O (stereo not drawn)	0.77
COc1ccc(CN2COc3ccc4c(oc(=O)c5ccccc54)c3C2)cc1OC	-2.18

Overlap with the part before: 5 compounds, followed by the next part.
SMILES	Bm FixLJ act
COC(=O)c1cc2oc3ccccc3c2n1Cc1ccccc1Cl	-0.53
Cc1cc(Cl)ccc1S(=O)(=O)N1CCC[C@]2(CCCC2O)C1 (stereo partly drawn)	-1.38
CCc1ccc(Cc2cnc(NC(=O)c3ccc4c(c3)CC(c3ccccc3)OC4=O)s2)cc1 (stereo not drawn)	-4.05
CN1CC(Nc2nc(CCc3ccccc3)nc3c2cnn3C)CCC1=O (stereo not drawn)	0.77
COc1ccc(CN2COc3ccc4c(oc(=O)c5ccccc54)c3C2)cc1OC	-2.18
COc1ccc(Cn2cc(S(=O)(=O)c3ccc(C)cc3)c(=O)c3cc(F)ccc32)cc1	-0.49
Cc1nc2scc(C)n2c(=O)c1S(=O)(=O)N1CCN(c2cccc(C(F)(F)F)c2)CC1	-0.07
Nc1nc(CN2CCC(O)C(C(=O)O)C2)nc2sc3c(c12)CCCC3 (stereo not drawn)	0.81
O=C(c1ccncc1)N1CC2COc3ccccc3C[C@@]2(C(=O)O)C1 (stereo partly drawn)	-0.26
CC(NC(=O)CSc1ccccn1)c1nc2c(s1)CCCC2 (stereo not drawn)	0.56
COc1ccccc1OCCCCn1c(-c2ccc(Cl)cc2)nc2ccccc2c1=O	-0.11
CCc1ccccc1NC(=O)N(C)CCc1c(C)nn(C)c1C	0.63
CCCOc1ccc(CNC(=O)CCCn2ncn3c(cc4sc(CC)cc43)c2=O)cc1	-0.47
COc1ccc(CN2C(=O)C(NC(=O)c3cccc(C)c3)(C(F)(F)F)N=C2c2ccccc2)cc1 (stereo not drawn)	-0.28
Cc1ccccc1CNC(=O)C1CCCN(c2nnc(-n3c(C)ccc3C)s2)C1 (stereo not drawn)	-0.23
CCCCN(CCCC)c1nc(-c2ccccc2)nc2ccccc12	1.75
Cc1ccc(C)c(S(=O)(=O)N2C[C@H]3COC[C@H](C2)N(C)C3=O)c1	0.6
Cc1cc(C)cc(NC2=CC(c3cccc(F)c3)N(c3cc(C)cc(C)c3)C2=O)c1 (stereo not drawn)	-1.11
CSc1ccc(C(=O)N2CCc3nc(-c4cccnc4)[nH]c3C2)cc1	-1.49
CC(C)OCCCNC(=O)c1ccc2c(c1)NC(=O)c1ccccc1S2	-0.87
COc1ccc(C2CN(c3cc(C#N)ccn3)CC2NC(C)=O)cc1 (stereo not drawn)	-1.14
CC(NC(=O)Cn1c(=O)oc2cc(S(=O)(=O)NCc3ccccc3)ccc21)c1ccccc1 (stereo not drawn)	-1.46
CCCCNc1nc2ccccc2c2nc(-c3ccccc3)nn12	-0.28
O=C(c1ccc2c(c1)N(Cc1ccc(F)cc1)C(=O)c1ccccc1S2=O)N1CCC(Cc2ccccc2)CC1 (stereo not drawn)	0.72
Cc1ccc2nc(/C(C#N)=C/c3ccc(-c4cccc(Cl)c4)o3)[nH]c2c1	1.01
CCCCN(C)CCCNC(=O)Cn1ncc2c3ccccc3n(Cc3ccccc3)c2c1=O	-1.68
O=S(=O)(Nc1cccc(C(F)(F)F)c1)c1ccc(NS(=O)(=O)c2ccc3c(c2)OCCO3)cc1	-2.37
COc1ccc(CCCc2nnc(SCC(=O)Nc3ccc(C)cc3C)o2)cc1	0.46
COc1cc(Cl)c(C)cc1NC(=O)Cn1ncc2c1-c1cc(C)ccc1OC2	-2.03
O=C(CCCN1CCC(O)(c2cccc(C(F)(F)F)c2)CC1)c1ccc(F)cc1	0.67

Copied from the listing for reference:
SMILES	Bm FixLJ act
COc1ccc(Cn2cc(S(=O)(=O)c3ccc(C)cc3)c(=O)c3cc(F)ccc32)cc1	-0.49
Cc1nc2scc(C)n2c(=O)c1S(=O)(=O)N1CCN(c2cccc(C(F)(F)F)c2)CC1	-0.07

(list continues)
SMILES	Bm FixLJ act
CC(C)(C)C(=O)Nc1ccc(-c2nc3ccc(NC(=O)C(C)(C)C)cc3[nH]2)cc1	-0.73
Cc1ccc(S(=O)(=O)c2nc(-c3ccc(F)cc3)oc2N2CCN(c3ccccc3)CC2)cc1	1.09
Cc1cc(-c2ccc(S(=O)(=O)NC3CCOC4(CCOCC4)C3)o2)on1 (stereo not drawn)	-0.75
O=c1oc2ccccc2c(N2CCN(c3ccccc3F)CC2)c1CN1CCCC1	-0.34
COc1cccc(CN2C(=O)c3ccccc3Sc3ccc(C(=O)NCCc4ccc(C)cc4)cc32)c1	-0.14
O=C(Nc1ncc(Cc2ccc(Cl)cc2)s1)c1ccc2c(c1)CC(c1ccccc1)OC2=O (stereo not drawn)	-0.75
O=C(Cc1cccc(F)c1F)NC1COCCC1OCc1ccccn1 (stereo not drawn)	1.13
COc1ccc2c(c1)OC[C@]1(C(=O)O)CN(Cc3cnc(N(C)C)nc3)CC21 (stereo partly drawn)	-0.58

Not all compounds are listed (hit frequency here may not be typical).
